# Screening data (PubChem BioAssay)
# GIRK2 act: GIRK2 channel activation; HEK293-GIRK2 thallium flux, Thallos fluorescence; AID 1259325; 0.05% of 63,000 active; calls only for hits at 25 µM; P48051;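 active means among the strongest 0.2% of first-round signals and kept after retests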;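 further: first round at about 10 µM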
# Target sequence (P48051 whole entry, looked up): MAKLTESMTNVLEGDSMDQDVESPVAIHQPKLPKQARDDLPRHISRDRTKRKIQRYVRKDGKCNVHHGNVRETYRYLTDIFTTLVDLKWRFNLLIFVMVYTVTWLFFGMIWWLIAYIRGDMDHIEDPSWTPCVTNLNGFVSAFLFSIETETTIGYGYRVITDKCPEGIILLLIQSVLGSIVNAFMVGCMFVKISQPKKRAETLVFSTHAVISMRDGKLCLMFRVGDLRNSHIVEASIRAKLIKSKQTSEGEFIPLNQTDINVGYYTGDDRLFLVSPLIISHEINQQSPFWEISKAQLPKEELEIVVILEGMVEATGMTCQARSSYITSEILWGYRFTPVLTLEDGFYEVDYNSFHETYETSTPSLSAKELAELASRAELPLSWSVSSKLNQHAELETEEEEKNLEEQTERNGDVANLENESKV
# Calls only; i = inactive. An excerpt; count on the stated rates, not on these rows.
SMILES,GIRK2 act
COc1ccc(CNC(=O)N2CCN(c3c(C)nn(-c4ccccc4)c3C)CC2)cc1OC,i
COc1ccc(-n2ccn(CC(=O)Nc3cc(C)cc(C)c3)c(=O)c2=O)cc1OC,i
Cc1cc(C(F)(F)F)nc(SCC(=O)c2ccc3c(c2)OCO3)n1,i
COc1ccc(NC(=O)CCc2nc3sc4c(c3c(=O)[nH]2)CCCCC4)c(OC)c1,i
Cn1c(N=Nc2c(O)[nH]c3ccccc23)nc2c1c(=O)n(Cc1ccccc1)c(=O)n2C,i
COc1cccc(C(=O)NC2CCN(C(=O)c3cn(-c4cc(C)cc(C)c4)nn3)CC2)c1,i
O=C(Nc1ccccc1)OC1CCCC(NS(=O)(=O)CCN2C(=O)CCCC2=O)C1 (configuration not stated),i
CC(C)C(=O)Nc1ccc(-n2cnc(C(=O)N3CCc4ccccc4C3)c2)nc1,i
O=C(c1ccc(S(=O)(=O)Nc2cccnc2)o1)N1CCCC1,i
COc1ccc(C)cc1NC(=O)C(=O)NCC1(c2ccc(F)cc2)CC1,i
CCC(=O)Oc1ccc2c(c1)O/C(=C\c1ccc(OC)c(OC)c1OC)C2=O,i
COc1ccc(CCC(=O)N2CC(c3nc4ccc(C)cc4[nH]3)C2)cc1,i
N#Cc1ccc(NC(=O)c2ccc(N3C(=O)c4ccccc4C3=O)cc2)cc1,i
Cc1ccccc1OCC(=O)Nc1ccc(-n2nnc(C(=O)NCC(F)(F)F)n2)cc1,i
Cc1ccc(-c2cc3c(=O)n(Cc4ccccc4)ccn3n2)cc1C,i
Cc1nnc(NC(=O)CCCn2c(C)ccc2C)s1,i
O=C(Cn1nc2c3cc(-c4ccc(Cl)cc4)nn3ccn2c1=O)Nc1ccc2c(c1)OCO2,i
Cc1ccc2nc3c(cc(C(=O)N4CCCC4)n3Cc3ccccc3)c(=O)n2c1,i
Cc1cc(C)n(-c2ccnc(N3CCC(C(=O)N4CCN(c5ccccc5)CC4)CC3)n2)n1,i
CC(C)N1CCc2c(sc(NC(=O)COc3ccc(Cl)cc3)c2-c2nc3ccccc3s2)C1,i
O=C(Nc1ccccc1)N1CCC2(CCc3ccccc3O2)CC1,i
COc1ccccc1N1C(=O)/C(=C/c2ccncc2)SC1=S,i
CCC(CO)NC(=O)c1nnn(-c2ccc(Cl)cc2)n1 (configuration not stated),i
COC(=O)c1ccc(S(=O)(=O)NCCN2CCN(C(=O)c3ccsc3)CC2)cc1,i
Cc1cc2c(cc(=O)c1O)C1(CO)CCCC(C)(C)C1CC2 (configuration not stated),i
COc1ccccc1CNC(=O)c1coc(NC(=O)c2ccsc2)n1,i
COc1ccc(-c2c(C)oc3c4c(ccc3c2=O)OCN(Cc2cccs2)C4)cc1OC,i
O=C(NCC(O)c1ccc2c(c1)CCO2)c1cccc(Br)c1 (configuration not stated),i
Cc1ccc(-c2noc(-c3c[nH]c4ccc(F)cc4c3=O)n2)cc1C,i
C/C=C/Cn1c(=O)c2c(nc3n(-c4ccc(S(N)(=O)=O)cc4)c(C)c(C)n23)n(C)c1=O,i
Cc1ccc(C)c(S(=O)(=O)c2cn(C)c3cc(N4CCCCCC4)c(F)cc3c2=O)c1,i
CS(=O)(=O)CCc1cccc(C(=O)c2cnn(-c3ccc(F)cc3)c2N)c1,i
O=C(Nc1ccc(OC(F)(F)F)cc1)Nc1cc(N2CCCCC2)ncn1,i
Cc1cc(C)n(CC(=O)N2CCN(Cc3ccsc3)CC2)n1,i
O=C(NCC1(c2ccc(F)cc2)CC1)C(=O)Nc1ccc2c(c1)OCO2,i
Cc1nn(C)cc1C(=O)Nc1ccc(OC(F)(F)F)cc1,i
COc1ccc(NC(=O)Cn2cccc(S(=O)(=O)N3CCOCC3)c2=O)cc1,i
CCCn1cc(-c2nc(-c3ccc(OC(C)C)cc3)no2)c(=O)c2cc(F)ccc21,i
O=C(Nc1ccc(N2CCCS2(=O)=O)cc1)c1ccc(F)c(F)c1,i
CCOc1ccccc1C(=O)N1CCN(CC(O)c2ccco2)CC1 (configuration not stated),i
Cc1cc(=O)[nH]c2cc(NC(=O)CNC(=O)c3ccccc3)ccc12,i
COc1ccccc1C1C(=C(O)c2ccccc2)C(=O)C(=O)N1c1cc(C)on1 (configuration not stated),i
COC(=O)C1CN(C(=O)c2cc3n(n2)CCCO3)C1,i
CC(=O)N1N=C(c2cccs2)CC1c1cn(-c2ccccc2)nc1-c1cccs1 (configuration not stated),i
Cc1cccc(NC(=O)COc2cc(C(C)(C)C)nn2-c2nc(C)cc(C)n2)c1,i
Cc1noc(C)c1CCC(=O)Nc1nnc(-c2ccsc2)o1,i
COc1ccc(CCNC(=O)CN2CC(c3nc(-c4ncccn4)no3)C2)cc1OC,i
CSc1ccc(CNC(=O)CSc2nccn2-c2cccc(C(=O)NCc3ccco3)c2)cc1,i
O=C(NCC1CCN(C(=O)c2ccoc2)CC1)c1ccc(OC(F)(F)F)cc1,i
COc1ccc(S(=O)(=O)N2CCN(c3ccc(-c4noc(C)n4)cn3)CC2)cc1C,i
CCOc1cccc2cc(-c3nc4ccc([N+](=O)[O-])cc4[nH]3)c(=O)oc12,i
CCOc1ccc(N2CCCn3c2nc2c3c(=O)n(C/C=C/c3ccccc3)c(=O)n2C)cc1,i
COc1cccc2sc(OC3CN(S(=O)(=O)c4cccnc4)C3)nc12,i
CCOC(=O)COc1ccc2c(=O)c(Oc3ccc(C(=O)OCC)cc3)c(C)oc2c1,i
CSc1nnc(-c2ccccc2NC(=O)c2cccc(S(=O)(=O)N3CCCCCC3)c2)o1,i
COc1ccc(OCC2c3cc(OC)c(OC)cc3CCN2C(=O)c2cccs2)cc1 (configuration not stated),i
NC(=O)c1ccc(NC(=O)CN2CCC(c3nnc(C(F)(F)F)o3)CC2)cc1,i
Cn1nc(CNC(=O)c2c(F)cccc2F)cc1-c1ccncc1,i
CCCOC(=O)c1ccc(Oc2coc3cc(OC(=O)N4CCOCC4)ccc3c2=O)cc1,i
O=C(/C=C/c1cccs1)Nc1sccc1-c1nc2ccccc2s1,i
# Next compounds.
SMILES,GIRK2 act
CN(C)S(=O)(=O)c1ccc(C(=O)N2CCCC(COCc3ccccc3)C2)cc1 (configuration not stated),i
CCS(=O)(=O)N1CCCc2ccc(NS(=O)(=O)c3cc(C)c(OC)c(C)c3)cc21,i
CCOC(=O)c1ccc(NC(=O)Cn2cc(-c3ccccc3)c3ncn(CC)c(=O)c32)cc1,i
COc1ccc(C(=O)NCCS(=O)(=O)N2CCN(c3ccccc3)CC2)cc1,i
COc1ccc(NC(=O)Cn2ccn(-c3cccc(Cl)c3)c(=O)c2=O)c(OC)c1,i
COCCn1c(=O)c2c(nc(-n3nc(C)c(C)c3C)n2Cc2ccc(F)cc2)n(C)c1=O,i
Cc1ccc(-n2nnc(C(=O)Nc3ccccc3[N+](=O)[O-])c2C)cc1,i
COc1ccc(-n2nnc(C(=O)N(Cc3ccccc3)c3ccccc3)n2)cc1,i
CCOc1cc(/C=C(\C#N)c2nc(-c3ccc([N+](=O)[O-])cc3)cs2)ccc1OC(C)C,i
Cc1ccc(NC(=O)/C=C/c2cccs2)cc1N1CCCC1=O,i
COc1cc(NC(=O)CC(C)(C)C)ccc1N1CCCCC1=O,i
O=C(Nc1nc2c(s1)CN(C(=O)c1cc(-c3ccco3)on1)CC2)C1CC1,i
O=C(O)C1=CN=C2C3=NC=CCC3C=CC2C1=O (configuration not stated),i
O=C(NCCC1CCCCN1S(=O)(=O)c1cccs1)c1nc2ccccc2s1 (configuration not stated),i
CN(CC(=O)NCCc1cccs1)c1nc2c(Cl)cccc2s1,i
O=C(NCCc1cccs1)c1nnn(-c2cccc(Cl)c2)c1-c1ccncc1,i
Cc1csc(SCC2CCN(C(=O)c3ccc(S(=O)(=O)N(C)C)cc3)CC2)n1,i
COc1ccc(-c2noc(-c3cccn(CC(=O)Nc4ccc(C#N)cc4)c3=O)n2)cc1OC,i
O=C(NCC1CCCO1)NC1(c2nc(C3CC3)no2)CCCCC1 (configuration not stated),i
Cc1ccc(CC(=O)Nc2sc3c(c2-c2nc4ccccc4s2)CCC(C)C3)cc1C (configuration not stated),i
Cc1c(Cl)ccc2sc(=NC(=O)c3ccn(C)n3)n(C)c12,i
COC(=O)CC1(C(=O)OC)SC(=Nc2ccccc2)NN1c1nnc(C)c(=O)[nH]1 (configuration not stated),i
O=C(C1CCCN1S(=O)(=O)c1cccs1)N(CCn1cccn1)c1nc2ccccc2s1 (configuration not stated),i
CCCCC[C@@H](O)/C=C/[C@H]1C(=O)C[C@H](O)[C@@H]1C/C=C\CCCC(=O)O,i
COc1ccccc1C1(CNC(=O)COc2ccc(Cl)cc2Cl)CCOCC1,i
CCc1noc(-c2ccc(SCC(=O)Nc3ccc(Br)cc3)nc2)n1,i
Cc1ccc(Nc2ccccc2F)c(CC(=O)O)c1,i
COc1ccc(CCNS(=O)(=O)c2cc(C)ccc2C)cc1OC,i
O=C(NCc1cccs1)Nc1nnc(-c2ccc3c(c2)CCCC3)o1,i
COC(=O)c1sccc1S(=O)(=O)N1C2CCCC1COC2,i
COCCNC(=O)C(=O)NCCC1CCCCN1S(=O)(=O)c1ccc(F)cc1 (configuration not stated),i
Cc1cccc(Nc2nc(C(=O)NCC(N)=O)cs2)n1,i
Cc1cc(C)c2nc(C)cc(NC(=O)c3cncc(Br)c3)c2c1,i
CC1Oc2ccccc2N(Cc2nc(-c3ccc(Cl)c(F)c3)no2)C1=O (configuration not stated),i
CC1=C(C(=O)Nc2ccc3[nH]ncc3c2)C(c2ccc(F)cc2)N=C(c2ccc(C(F)(F)F)nc2)N1 (configuration not stated),i
CC(=O)Nc1ccc(SCCCC(=O)Nc2cc(C)no2)nn1,i
O=C1C2N=NN(Cc3ccccc3)C2C(=O)N1c1ccc(F)cc1 (configuration not stated),i
COc1ccc(OC)c(NCCCn2c(C)c(C)n3c4c(=O)[nH]c(=O)n(C)c4nc23)c1,i
Cc1noc(CNC(=O)C2CCN(C(=O)c3cnn(-c4ccccc4)c3C)CC2)n1,i
Cc1noc(CNS(=O)(=O)c2ccc(C)c(C)c2)n1,i
COc1ccc(CNc2nccn(-c3cc(C)cc(C)c3)c2=O)cc1,i
O=C(Nc1cc(N2CCCCC2)ncn1)C1CC(=O)N(c2cccc(F)c2)C1 (configuration not stated),i
COc1ccc(SCC2CCN(S(=O)(=O)C3CC3)CC2)cc1,i
O=C(Nc1nc(-c2cccnc2)cs1)C1CCN(S(=O)(=O)c2ccc(Cl)cc2)CC1,i
CCCc1cnc2c(c1SC(C)C(=O)O)c(=O)n(C)c(=O)n2C (configuration not stated),i

# In the list so far, three have a cyano group:
SMILES,GIRK2 act
N#Cc1ccc(NC(=O)c2ccc(N3C(=O)c4ccccc4C3=O)cc2)cc1,i
CCOc1cc(/C=C(\C#N)c2nc(-c3ccc([N+](=O)[O-])cc3)cs2)ccc1OC(C)C,i
COc1ccc(-c2noc(-c3cccn(CC(=O)Nc4ccc(C#N)cc4)c3=O)n2)cc1OC,i

# Other compounds.
SMILES,GIRK2 act
Cc1c(C(O)=C2C(=O)C(=O)N(CCCN(C)C)C2c2ccco2)cnn1-c1ccccc1 (configuration not stated),i
Cc1nc(-c2ccccc2Cl)sc1CNS(=O)(=O)c1ccccc1C(F)(F)F,i
Cc1ccc(OCC(=O)N2CCC(c3nnc(C4CC4)o3)CC2)cc1,i
CCOc1ccc(N2CC(O)Cn3c2nc2c3c(=O)n(C)c(=O)n2C)cc1 (configuration not stated),i
COc1ccc(-c2ccc(N3CCCC(C(=O)NCc4cccs4)C3)nn2)cc1 (configuration not stated),i
CCCSc1ccc2nc(NC(=O)OC)[nH]c2c1,i
COCCn1c(-n2nc(C)c(C)c2C)nc2c1c(=O)n(Cc1ccccc1F)c(=O)n2C,i
NC(=O)c1ccccc1OCC#CCNC(=O)c1cc(-c2ccco2)on1,i
Cc1cn2c(CCC(=O)NCCOc3ccc(F)cc3)csc2n1,i
Cc1ccc(-c2noc(-c3ccc(=O)n(Cc4cc(=O)n5ccccc5n4)c3)n2)cc1,i
CCCCN1C(=O)CCc2cc(NC(=O)c3ccc(OC)cc3OC)ccc21,i
O=C(Cc1csc(Nc2ccc(Cl)cn2)n1)NCc1nc(-c2ccccc2)no1,i
CC(C)COC(=O)c1c(N)n(-c2ccc(S(N)(=O)=O)cc2)c2nc3ccccc3nc12,i
O=C(NCC#CCOc1ccc2c(c1)OCO2)C1COc2ccccc2O1 (configuration not stated),i
COc1cc(-c2nnc(NC(=O)c3cc(C)nn3C)o2)cc(OC)c1OC,i
O=C(NCc1c(F)cccc1F)c1ccc(OCc2nc(-c3ccco3)cs2)cc1,i
Cc1ccc(C2C3C(=O)NC(=O)C3ON2c2ccc(Cl)cc2)cc1 (configuration not stated),i
COc1ccccc1CCNC(=O)CC1CCCCN1S(=O)(=O)c1ccc(C)cc1 (configuration not stated),i
Cc1ccccc1C(=O)NCCCS(=O)(=O)N1CCN(c2ccccc2)CC1,i
O=C(Nc1ccc2ncsc2c1)c1cc2c(ccc3ccccc32)oc1=O,i

# In the list so far, 13 contain a Cl atom:
SMILES,GIRK2 act
O=C(Cn1nc2c3cc(-c4ccc(Cl)cc4)nn3ccn2c1=O)Nc1ccc2c(c1)OCO2,i
CC(C)N1CCc2c(sc(NC(=O)COc3ccc(Cl)cc3)c2-c2nc3ccccc3s2)C1,i
CCC(CO)NC(=O)c1nnn(-c2ccc(Cl)cc2)n1 (configuration not stated),i
COc1ccc(NC(=O)Cn2ccn(-c3cccc(Cl)c3)c(=O)c2=O)c(OC)c1,i
CN(CC(=O)NCCc1cccs1)c1nc2c(Cl)cccc2s1,i
O=C(NCCc1cccs1)c1nnn(-c2cccc(Cl)c2)c1-c1ccncc1,i
Cc1c(Cl)ccc2sc(=NC(=O)c3ccn(C)n3)n(C)c12,i
COc1ccccc1C1(CNC(=O)COc2ccc(Cl)cc2Cl)CCOCC1,i
CC1Oc2ccccc2N(Cc2nc(-c3ccc(Cl)c(F)c3)no2)C1=O (configuration not stated),i
O=C(Nc1nc(-c2cccnc2)cs1)C1CCN(S(=O)(=O)c2ccc(Cl)cc2)CC1,i
Cc1nc(-c2ccccc2Cl)sc1CNS(=O)(=O)c1ccccc1C(F)(F)F,i
O=C(Cc1csc(Nc2ccc(Cl)cn2)n1)NCc1nc(-c2ccccc2)no1,i
Cc1ccc(C2C3C(=O)NC(=O)C3ON2c2ccc(Cl)cc2)cc1 (configuration not stated),i
